# High-throughput results deposited in PubChem BioAssay by National Center for Advancing Translational Sciences (NCATS).
# CtBP-E1A inh: CtBP/E1A binding inhibition; AlphaScreen GST-E1A/His-CtBP binding, 1536-well; hits give low values; control for the full effect not named in the record; activity change, % (no concentration beside the values); 0.49% of 340,000 active; AID 651724; in the data active means activity change below about -65%; inconclusive means about -30% to -65%; inactive means above about -30%; note: % is set by controls: 0 for no effect and ±100 for the full control effect; compound concentration not given in the record
#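 Homogeneous bead-based format: GST-tagged E1A captured on glutathione donor beads, His-tagged CtBP on nickel acceptor beads; compounds precede bead addition by 2 h at 37 °C.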
# Six1-Eya2 blk: inhibitors of human Six1/Eya2 interaction | AlphaScreen GST-Six1/His-Eya2 binding, biochemical; hits give low values; control for the full effect not named in the record | AID 651725 | 0.56% of 360,000 active | activity change, % (concentration not given with the values) | Q15475+O00167; in the data active = activity change below about -65%; inconclusive = about -30% to -65%; inactive = above about -30%; note: % is set by controls: 0 for no effect and ±100 for the full control effect
#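 Compounds are tested against tagged Six1 and Eya2 proteins bridged by glutathione donor and nickel acceptor beads; after a one-hour incubation at 37 °C without light, AlphaScreen emission is recorded.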
# TRPML1 blocker: blocks the human TRPML1 channel | 0.02% of 390,000 active | activity change, negative = inhibition, % (test concentration not listed) | Q9GZU1 | TRPML1-inducible cells, Ca2+ dye fluorescence, FDSS; hits give low values; inhibition of EC80 agonist-evoked calcium signal; in the data active means activity change below about -50%; inconclusive means about -30% to -50%; inactive means above about -30%;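 note: stimulus is agonist 54-4 at its EC80 concentration; % is set by controls: 0 for no effect and ±100 for the full control effect; compound concentration not given in the record; the text of the record puts the active cut at -80%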
# Target sequence (Q9GZU1 whole entry, looked up): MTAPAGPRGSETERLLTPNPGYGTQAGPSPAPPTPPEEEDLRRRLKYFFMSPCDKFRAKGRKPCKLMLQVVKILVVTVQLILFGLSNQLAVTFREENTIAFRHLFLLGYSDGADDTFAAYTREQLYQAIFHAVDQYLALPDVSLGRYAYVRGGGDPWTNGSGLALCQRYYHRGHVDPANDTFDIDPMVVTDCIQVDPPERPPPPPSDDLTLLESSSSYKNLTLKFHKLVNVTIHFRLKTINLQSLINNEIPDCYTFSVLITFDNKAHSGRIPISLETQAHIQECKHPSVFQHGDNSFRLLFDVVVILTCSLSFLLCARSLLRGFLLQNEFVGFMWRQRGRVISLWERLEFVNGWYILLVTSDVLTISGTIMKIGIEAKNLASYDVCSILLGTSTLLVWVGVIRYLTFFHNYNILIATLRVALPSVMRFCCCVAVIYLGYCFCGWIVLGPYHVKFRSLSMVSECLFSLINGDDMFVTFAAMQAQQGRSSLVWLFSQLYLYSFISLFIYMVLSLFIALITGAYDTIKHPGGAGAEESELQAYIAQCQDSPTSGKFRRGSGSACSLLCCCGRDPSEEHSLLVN
#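 Calcium fluorescence in TRPML1-DL cells induced overnight with Tet: a 110 s read after compound pin addition, then a 110 s antagonist read after challenge with 54-4 at 4 uM final (EC80).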
# D2 potentiator: potentiates the human D2 dopamine receptor allosterically. 0.23% of 360,000 active. AID 624464. potentiation, % (test concentration not listed). DiscoveRx D2 beta-arrestin cells, luminescence, 90 min; 100% = 57 uM dopamine signal; active = potentiation of 50% or more; inconclusive = 30% to 50%; inactive = 30% or less;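 note: compound concentration not given in the record; tested on top of an EC20 dose of dopamine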
# Target sequence (P14416 whole entry, looked up): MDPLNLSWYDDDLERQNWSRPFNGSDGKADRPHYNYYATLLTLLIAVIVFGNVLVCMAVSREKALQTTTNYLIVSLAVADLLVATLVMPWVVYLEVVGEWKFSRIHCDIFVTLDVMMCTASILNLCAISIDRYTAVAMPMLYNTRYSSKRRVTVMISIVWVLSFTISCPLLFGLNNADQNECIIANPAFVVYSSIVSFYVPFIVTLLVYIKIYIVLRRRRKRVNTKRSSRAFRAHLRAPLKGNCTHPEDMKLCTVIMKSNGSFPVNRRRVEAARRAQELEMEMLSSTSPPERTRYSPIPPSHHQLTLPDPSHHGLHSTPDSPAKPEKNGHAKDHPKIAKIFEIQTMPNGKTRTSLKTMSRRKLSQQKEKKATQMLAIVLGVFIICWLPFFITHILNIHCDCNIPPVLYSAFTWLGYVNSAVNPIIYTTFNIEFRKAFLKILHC
#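 D2 cells co-treated with compound plus 50 nM dopamine (EC20) for 90 min at 37 deg C to detect potentiation. Beta-arrestin recruitment was read as enzyme-fragment luminescence after 1 h at ambient temperature. Full response was set by 57 uM dopamine.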
# TRPML1 agonist: human mucolipin-1 channel agonism; activation, % (test concentration not listed); AID 624414; 0.12% of 410,000 active; TRPML1-expressing cells, Ca2+ dye fluorescence, FDSS; host cell line not named in the record; reference of the full effect not given here; Q9GZU1; in the data active = activation above about 50%; inconclusive = about 30% to 50%; inactive = below about 30%; note: 0% is about no effect; the text of the record puts the active cut at 80%
#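 Kinetic FDSS Ca2+ read in Tet-induced TRPML1-DL cells (ABD Ca8 dye plus quencher, 45-90 min RT loading): baseline, then compound, then 110 s agonist window; EC80 agonist 54-4 at 4uM final added afterwards for a 110 s antagonist window.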
# TRPV1 PAM: enhances activation of the human vanilloid receptor TRPV1. Q8NER1. TRPV1-expressing cells, Fluo-8 calcium influx, capsaicin EC20 potentiation; host cell line not named in the record; control for the full effect not named in the record. potentiation, % at 8.33 µM. 0.02% of 320,000 active. AID 540277; active means potentiation above 80%; inconclusive means 30% to 80%; inactive means below 30%; note: 0% is about no effect
#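 TRPV1-expressing cells were cultured overnight at 35.5C and loaded with Fluo-8 calcium dye for 40 to 90 min at room temperature. After a 10 s baseline, compound was added and calcium influx was read kinetically for 3 min (ex 480/em 520 nm).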
# An asterisk follows results filed as active; ? = inconclusive; nt = not tested or not shown; & = joins results of further samples.
SMILES,CtBP-E1A inh,Six1-Eya2 blk,TRPML1 blocker,D2 potentiator,TRPML1 agonist,TRPV1 PAM
OC(COC(c1ccccc1)c1ccccc1)CN1CCc2ccccc2C1 (stereo not drawn),-27,-10,39,-7,-0.1,8
COc1ccc(NC(=O)COC(=O)CN2C(=O)C3CCCCC3C2=O)cc1OC (stereo not drawn),nt,10,-7,-4,0.0,0
COC(=O)c1c(C(=O)OC)c2ccncn2c1Cl,2,-16,10,-5,-0.6,-9
Nc1nnc(CSCc2ccccc2Cl)s1,7,4,-3,-1,0.2,nt
COc1ccc(-c2nn(CCC#N)cc2/C=N/O)cc1OC,8,9,2,3,0.8,-19
O=C(CNc1cccc2ccccc12)N/N=C/c1cccc(Oc2ccccc2)c1,nt,-20,6,-2,-0.8,?
Cc1ccc(NS(=O)(=O)c2ccc3c(c2)NC(=O)CCS3)c(Cl)c1,-3,-1,-23,9,-1.1,-5
COc1ccc(N(C(=O)Cn2nnc(-c3ccc(Cl)cc3)n2)C(C(=O)NCC2CCCO2)c2ccncc2)cc1 (stereo not drawn),-7,2,-1,-12,1.7,2
N#Cc1ccccc1COC(=O)c1cc(=O)c2ccccc2o1,0,46,-11,-9,0.7,11
CCN(CC)Cc1c(C(=O)N/N=C/c2cccs2)nnn1-c1nonc1N,6,-1,-15,-4,0.9,-9
COc1ccccc1C(=O)NNC(=O)c1ccc(C)cc1,3,-2,0,-8,0.5,-31
COc1ccc(C(=O)Nc2ccc(NC(=O)c3ccccc3F)cn2)cc1,-16,-2,-12,-3,0.8,-2
Cc1ccc(N2C(=O)/C(=C/c3ccco3)SC2=S)cc1,-12,-14,-21,2,-0.4,15
FC(F)(F)Oc1ccccc1C(c1nnnn1-c1ccc2c(c1)OCCO2)N1CCN(C/C=C/c2ccccc2)CC1 (stereo not drawn),-23,-24,nt,-17,-0.5,nt
Cc1cc(C(=O)N/N=C/c2cccnc2)c(C)o1,5,-3,-4,-12,0.5,-12
O=C(Nc1cccc2ccccc12)c1ccc2sc([C@H]3C[C@H](O)[C@@H](CO)O3)nc2c1,-19,-18,-27,-3,0.5,nt
COc1ccc(C)cc1NC(=O)C(Sc1nnc(Nc2cc(C)ccc2OC)s1)c1ccccc1 (stereo not drawn),-12,-14,5,-43,1.0,18
Nc1ccc(N2CCN(c3ccc(F)cc3)CC2)cc1,-11,14,-19,-6,-0.7,-15
O=C(c1ccc(NS(=O)(=O)c2cccc([N+](=O)[O-])c2)cc1)N1CCN(C(=O)c2ccco2)CC1,-8,3,-7,-2,-0.8,-5
Cc1c(S(=O)(=O)NC2CCCCC2)c(=O)n(C)c(=O)n1C,6,7,6,-5,-0.1,-1
CN(Cc1ccccc1)Cc1c[nH]c2ccccc12,-2,-2,-2,-45,3.1,-1
COc1ccc(NC(=O)COc2ccc(C(=O)NC3CCCc4ccccc43)cc2OC)cc1 (stereo not drawn),3,6,-5,3,-0.4,-30
COc1ncccc1-c1nnn(-c2ccc(F)cc2)n1,11,11,26,-12,-0.6,8
O=c1[nH]n2c(C(F)(F)F)cc(C3CC3)nc2c1N=Nc1ccccc1,3,12,-14,-9,-0.2,-5
CC(C)(C)c1ccc(OCC(=O)Nc2ccc(C(=O)Nc3ccccc3C(=O)O)cc2)cc1,-1,0,11,-5,1.6,4

# Entries of single compounds, quoted from the list:
# Profile of `Cc1ccc(N2C(=O)/C(=C/c3ccco3)SC2=S)cc1` = CtBP-E1A inh: -12; Six1-Eya2 blk: -14; TRPML1 blocker: -21; D2 potentiator: 2; TRPML1 agonist: -0.4; TRPV1 PAM: 15
# Profile of `O=C(Nc1cccc2ccccc12)c1ccc2sc([C@H]3C[C@H](O)[C@@H](CO)O3)nc2c1` = CtBP-E1A inh: -19; Six1-Eya2 blk: -18; TRPML1 blocker: -27; D2 potentiator: -3; TRPML1 agonist: 0.5; TRPV1 PAM: nt

# By substructure, the entries above with a cyano group (2)
SMILES,CtBP-E1A inh,Six1-Eya2 blk,TRPML1 blocker,D2 potentiator,TRPML1 agonist,TRPV1 PAM
COc1ccc(-c2nn(CCC#N)cc2/C=N/O)cc1OC,8,9,2,3,0.8,-19
N#Cc1ccccc1COC(=O)c1cc(=O)c2ccccc2o1,0,46,-11,-9,0.7,11

# Remaining list, next part:
SMILES,CtBP-E1A inh,Six1-Eya2 blk,TRPML1 blocker,D2 potentiator,TRPML1 agonist,TRPV1 PAM
Cc1cn([C@H]2C[C@H](O)[C@@H](/C=C/C(=O)NCCC(C)C)O2)c(=O)[nH]c1=O,10,8,nt,-9,0.0,nt
COc1cc(C(=O)NC(=S)Nc2ccc([N+](=O)[O-])cc2)cc(OC)c1OC,-1,5,22,1,2.0,-3
COc1ccc(-c2nc(NC(=O)Cn3c(=O)oc4ccccc43)sc2C)cc1,-21,-4,25,-3,0.5,-22
Brc1cc2c(cc1C1OCCO1)OCO2,6,11,1,23,0.8,nt
COc1cc(OC)cc(C(=O)OCC(=O)NC(C)CCc2ccccc2)c1 (stereo not drawn),24,0,-2,2,2.3,23
COc1ccc(-c2oc3c(c2C#CC(C)(C)O)C(OC)CCC3)cc1 (stereo not drawn),0,-3,nt,nt,-0.8,nt
O=C(Nc1cccc(Cl)c1)Nc1nnc(CSCCOc2ccc(Cl)cc2)s1,-11,-6,9,-2,-0.3,-11
CCN1C(=O)C(CC(=O)Nc2ccc(F)cc2)N(Cc2ccco2)C1=S (stereo not drawn),-10,-18,-2,-2,1.5,6
O=C(CNC(=O)c1ccc(Cl)cc1)c1ccc(Br)cc1,9,8,-10,-5,0.6,?
CCC1(COC(NC(=O)c2cccnc2)(C(F)(F)F)C(F)(F)F)COC1,4,6,-9,0,0.5,5
Cc1c(C(=O)NCc2ccco2)cccc1[N+](=O)[O-],-4,8,-10,2,0.2,-4
O=C(COC(=O)c1cccc(OC(F)F)c1)Nc1cc(S(=O)(=O)N2CCCC2)ccc1Cl,3,3,-3,-5,-1.1,nt
Cc1ccc(NC(=O)c2ncn(CC(=O)N[C@H](CO)Cc3c[nH]c4ccccc34)n2)cc1C,-23,-9,6,nt,-0.6,nt
Cc1ccc(CNC(=O)COC(=O)c2cnccn2)cc1,1,1,5,-1,0.0,0
O=C(CCNS(=O)(=O)c1ccc(Cl)cc1)NCc1cccs1,0,4,8,-2,1.2,0
COc1ccccc1C(=O)C1CCCN(Cc2ccc3c(c2)OCCO3)C1 (stereo not drawn),-1,-3,-3,-8,1.3,3
COc1ccc(CNc2nnnn2C)cc1,0,-2,3,-6,-0.3,18
CC(=O)c1ccc(OCCCC(=O)Nc2ccc3c(c2)OCCO3)cc1,nt,-3,2,-2,1.0,-14
C=CCNC(=O)c1sc(SC)cc1-c1ccc(Cl)cc1,20,22,13,13,2.9,-24
O=C(O)CCC(=O)Nc1ccc(Cc2ccc(NC(=O)CCC(=O)O)cc2)cc1,-14,4,-13,-24,1.6,5
Nc1ccc(Cl)cc1/C(=N/O)c1ccccc1,-2,-2,25,17,1.6,12
O=C(COC(=O)c1ccc(CO)cc1)Nc1ccc2ccccc2c1,8,4,21,-1,1.8,9
CN(C(=O)COC(=O)c1ccc(Cl)c(S(=O)(=O)N2CCCCCC2)c1)C1CCS(=O)(=O)C1 (stereo not drawn),-1,9,-4,-3,0.1,nt
Oc1ccc(C[C@H]2CN([C@@H](Cc3cccc(O)c3)CN3CCC[C@@H]3CN3C(=S)NC[C@@H]3Cc3ccccc3)C(=S)N2CC2CCCCC2)cc1,-13,-6,4,-8,0.2,nt
CC(OC(=O)C1CCN(S(=O)(=O)c2ccc(Cl)cc2)CC1)C(=O)N1CCc2ccccc21 (stereo not drawn),7,-19,-1,16,0.0,0

# Given with each value named: part of the list above.
Cc1ccc(NC(=O)c2ncn(CC(=O)N[C@H](CO)Cc3c[nH]c4ccccc34)n2)cc1C
  CtBP-E1A inh: -23
  Six1-Eya2 blk: -9
  TRPML1 blocker: 6
  D2 potentiator: nt
  TRPML1 agonist: -0.6
  TRPV1 PAM: nt

O=C(COC(=O)c1ccc(CO)cc1)Nc1ccc2ccccc2c1
  CtBP-E1A inh: 8
  Six1-Eya2 blk: 4
  TRPML1 blocker: 21
  D2 potentiator: -1
  TRPML1 agonist: 1.8
  TRPV1 PAM: 9

Brc1cc2c(cc1C1OCCO1)OCO2
  CtBP-E1A inh: 6
  Six1-Eya2 blk: 11
  TRPML1 blocker: 1
  D2 potentiator: 23
  TRPML1 agonist: 0.8
  TRPV1 PAM: nt

# Next results.
SMILES,CtBP-E1A inh,Six1-Eya2 blk,TRPML1 blocker,D2 potentiator,TRPML1 agonist,TRPV1 PAM
Clc1cccc(CNc2ccn3nc(-c4cccc(Cl)c4)cc3n2)c1,6,9,nt,6,-0.8,nt
CCn1c(SCC(=O)N2CCCC(C)C2)nc2c1c(=O)n(C)c(=O)n2C (stereo not drawn),2,5,6,1,-0.8,-2
COc1ccc(C(=O)N=c2sc3ccccc3n2C)cc1,-18,3,-21,0,2.9,-16
COc1cc(N=c2ssnc2Cl)c(OC)cc1Cl,?,-5&-23,-5&-3,-15&-17,-0.2&0.6,-19&0
CCC(Sc1nc(=O)cc(N)n1-c1ccccc1)C(=O)Nc1cc(C)on1 (stereo not drawn),-23,1,-3,-4,1.1,-1
COc1cccc(OC)c1C(=O)OCC(=O)N(c1ccccc1)C1CCCCC1,-3,-6,15,2,-0.5,-7
Clc1cccc(-c2nc(NCC3CCCO3)c3ccccc3n2)c1 (stereo not drawn),12,2,6,-12,-1.6,-9
O=C(NC1CCCCCC1)c1ccc2nc3cc(Cl)ccc3c(=O)n2c1,7,-3,-12,-6,-0.5,-10
CC1Sc2ccc(C(=O)Nc3cc(S(C)(=O)=O)ccc3Cl)cc2NC1=O (stereo not drawn),14,0,24,-15,-0.5,-14
O=C(Nc1ccccc1)c1ccc2nc(-c3ccco3)c(-c3ccco3)nc2c1,?,?,-4,?,2.0&-0.7,2
N#C/C(=C\c1ccc(OC(=O)c2ccc(Cl)s2)cc1)c1nc2ccccc2[nH]1,12,?,-7,-4,1.1,-17
COc1ccc(/C(O)=C2/C(=O)C(=O)N(CC3CCCO3)C2c2ccc(O)c(OC)c2)cc1 (stereo not drawn),2,3,-4,1,0.0,-2
Cc1cc(F)ccc1S(=O)(=O)N1CCCOC1CNC(=O)C(=O)NCCCN1CCOCC1 (stereo not drawn),10,-14,6,-23,0.6,4
CCCCn1c(SCC(=O)Nc2ccc(NC(C)=O)cc2)nc2ccccc2c1=O,-17,-1,-6,-1,-0.6,-19
O=c1cc(-c2ccccc2)[nH]c2[nH]n(-c3ccccc3)c(=O)c12,-16,-7,16,7,1.2,21
COc1ccc(S(=O)(=O)N2CCCCC2)cc1NC(=S)Nc1cccc(Cl)c1C,-15,-19,16,-3,-0.5,-6
CN(C)C=NC(=O)c1[nH]c2ccc(Cl)cc2c1-c1ccccc1,-4,1,nt,-8,nt,7

# Reprinted from above (two entries):
SMILES,CtBP-E1A inh,Six1-Eya2 blk,TRPML1 blocker,D2 potentiator,TRPML1 agonist,TRPV1 PAM
Clc1cccc(CNc2ccn3nc(-c4cccc(Cl)c4)cc3n2)c1,6,9,nt,6,-0.8,nt
CCn1c(SCC(=O)N2CCCC(C)C2)nc2c1c(=O)n(C)c(=O)n2C (stereo not drawn),2,5,6,1,-0.8,-2

# This is a random part of the collection (roughly 0.95% active in at least one column).
